Sa ugtP lethal = growth inhibition of ugtP-null S. aureus, primary screen, RN4220 ugtP deletion, OD600 | 0.54% of 330,000 active | AID 1259309, 2017 | growth inhibition, % (test concentration not listed) | 16 h; some inactives read as strong as hits;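 active = z-score under -3 and OD600 up to 0.15 on both plates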;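 also: plate controls were untreated wells for no effect and antibiotic for full effect; wells of about 80 µL received 100 nL stock; the first replicate is given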
Bead autofluor = counter-screen for toxin protease inhibitors: compound fluorescence. compound autofluorescence counterscreen, microsphere flow cytometry; active compounds read high. fluorescence intensity (no concentration beside the values). 3.1% of 360,000 active;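 active = at least 3 SD above the mean of all compounds, about 16000 in these data; inconclusive = too few beads counted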;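 also: 100 nL of 1 mM stock went into each well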
RN4220 kill = growth inhibition of S. aureus RN4220, primary screen, OD600; 16 h; 0.33% of 330,000 active; AID 1259311, 2017; inhibition, % (test concentration not listed);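 active = z-score of -3 or lower and OD600 up to 0.18 on both plates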;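 also: plate controls were untreated cells for no effect and reference antibiotic for full effect; stock transfer was 100 nL into about 80 µL; one replicate is shown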
BJeLR lethal = MLPCN primary cell-based screen for lethality selective to Ras in HRASV12 cells; 0.17% of 300,000 active; inhibition, % (test concentration not listed); BJeLR (HRASV12) viability, CellTiter-Glo ATP luminescence, 48 h; reference of the scale not given here;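 active = replicate mean above 50%; inconclusive = above 50% but judged a plate artefact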;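 also: 50 nL library stock added to about 25 µL; numbers are from one replicate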
Mtb hypoxia rep = PubChem AID 1159583 | M. tuberculosis hypoxia-regulated fluorescent reporter, fluorescence | fluorescence inhibition, % (concentration not given with the values) | 0.1% of 300,000 active;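 active = 35 to 45% if threefold the growth effect, above 45% if 1.5-fold the growth effect; inactive = the rest, general growth blockers included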;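 also: wells of about 50 µL received 100 nL stock; 0% = vehicle wells and 100% = reference inhibitor wells; whole bacteria with a GFP reporter of the hypoxia response; strong numbers were not always called active; many hits fall short of the cut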
PrP UTR inh = inhibition of PrP 5' UTR reporter expression; cell-based PrP 5' UTR mRNA reporter, plate reader; inhibition, % (concentration not given with the values); 0.35% of 340,000 active; AID 488862, 2010;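 active = every replicate at 50% or more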;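 also: 0 = median of the neutral control wells; tested in H4 reporter cells; numbers are from one replicate; inactives centre near -14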
Mtb hypoxia rep growth = recorded beside Mtb hypoxia rep, whose call it bears; growth inhibition, %; measured here: M. tuberculosis growth (absorbance);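 0% = vehicle and 100% = reference antibiotic; read after six days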
An asterisk follows results filed as active; & = joins results of further samples.

A first look (5 entries):
How did O=C(COC(=O)/C=C/c1cccs1)Nc1ccc(Cl)cc1F do in these assays?
Sa ugtP lethal: -2; Bead autofluor: 4181; RN4220 kill: 3.1; Mtb hypoxia rep: 10; PrP UTR inh: -17; Mtb hypoxia rep growth: 4

Results for CCC(=O)N1c2ccc(S(=O)(=O)N3CCN(c4ccc([N+](=O)[O-])cc4)CC3)cc2CC1C (stereo unspecified) ?
Sa ugtP lethal: 5; Bead autofluor: 5601; RN4220 kill: 3.1; BJeLR lethal: 14; Mtb hypoxia rep: 5; PrP UTR inh: -16; Mtb hypoxia rep growth: -6

How did CN(Cc1ccccc1)C(=O)c1cc2ccccc2o1 do in these assays?
Sa ugtP lethal: -8; Bead autofluor: 10535; RN4220 kill: 12; BJeLR lethal: -8; Mtb hypoxia rep: 8; PrP UTR inh: -40; Mtb hypoxia rep growth: 14

Results for CC(C)[C@H](NS(=O)(=O)c1ccccc1)C(=O)OCC(=O)Nc1ccc2c(c1)OCO2 ?
Sa ugtP lethal: 0; Bead autofluor: 2233; RN4220 kill: 3.8; BJeLR lethal: 11; Mtb hypoxia rep: 2; PrP UTR inh: -19; Mtb hypoxia rep growth: 1

How did CC(C)c1ccccc1NC(=S)NCc1ccncc1 do in these assays?
Sa ugtP lethal: -7; Bead autofluor: 4544; RN4220 kill: 1.3; BJeLR lethal: -1; Mtb hypoxia rep: -9; PrP UTR inh: -18; Mtb hypoxia rep growth: 4

Results, repeating the preview:
How did O=C(COC(=O)/C=C/c1cccs1)Nc1ccc(Cl)cc1F do in these assays?
Sa ugtP lethal: -2; Bead autofluor: 4181; RN4220 kill: 3.1; Mtb hypoxia rep: 10; PrP UTR inh: -17; Mtb hypoxia rep growth: 4

Results for CCC(=O)N1c2ccc(S(=O)(=O)N3CCN(c4ccc([N+](=O)[O-])cc4)CC3)cc2CC1C (stereo unspecified) ?
Sa ugtP lethal: 5; Bead autofluor: 5601; RN4220 kill: 3.1; BJeLR lethal: 14; Mtb hypoxia rep: 5; PrP UTR inh: -16; Mtb hypoxia rep growth: -6

How did CN(Cc1ccccc1)C(=O)c1cc2ccccc2o1 do in these assays?
Sa ugtP lethal: -8; Bead autofluor: 10535; RN4220 kill: 12; BJeLR lethal: -8; Mtb hypoxia rep: 8; PrP UTR inh: -40; Mtb hypoxia rep growth: 14

Results for CC(C)[C@H](NS(=O)(=O)c1ccccc1)C(=O)OCC(=O)Nc1ccc2c(c1)OCO2 ?
Sa ugtP lethal: 0; Bead autofluor: 2233; RN4220 kill: 3.8; BJeLR lethal: 11; Mtb hypoxia rep: 2; PrP UTR inh: -19; Mtb hypoxia rep growth: 1

How did CC(C)c1ccccc1NC(=S)NCc1ccncc1 do in these assays?
Sa ugtP lethal: -7; Bead autofluor: 4544; RN4220 kill: 1.3; BJeLR lethal: -1; Mtb hypoxia rep: -9; PrP UTR inh: -18; Mtb hypoxia rep growth: 4

How did O=C(NC1CS(=O)(=O)CC1NCc1ccccc1)c1ccccc1 (stereo unspecified) do in these assays?
Sa ugtP lethal: 2; Bead autofluor: 8686; RN4220 kill: -1.6; BJeLR lethal: 16; PrP UTR inh: -7

How did CC(Oc1ccccc1)C(=O)Nc1cccc(-c2nc3ccccc3[nH]2)c1 (stereo unspecified) do in these assays?
Sa ugtP lethal: 2; Bead autofluor: 2910; RN4220 kill: 18; BJeLR lethal: -13; PrP UTR inh: -19

Results for Cc1cccc(C)c1-n1c(C)cc(C=NNc2ccc([N+](=O)[O-])cn2)c1C ?
Sa ugtP lethal: -36; RN4220 kill: 1.2; Mtb hypoxia rep: 10; Mtb hypoxia rep growth: 3

What do the screens show for `CCCCNC(=O)CNC(=O)c1nn(-c2ccc(OC)c(Cl)c2)c(=O)c2ccccc12`?
Sa ugtP lethal: 12; Bead autofluor: 3138; RN4220 kill: 3.8; BJeLR lethal: -3; Mtb hypoxia rep: 17; PrP UTR inh: -19; Mtb hypoxia rep growth: -3

What do the screens show for `O=C(/C=C/c1ccc(Cl)cc1)NC1CC2CCC1C2` (stereo unspecified)?
Sa ugtP lethal: 6; Bead autofluor: 3437; RN4220 kill: 2.3; BJeLR lethal: -2; Mtb hypoxia rep: 7; PrP UTR inh: -5; Mtb hypoxia rep growth: 12

What do the screens show for `COc1ccc(C2C3=C(CC(C)(C)CC3=O)N(CCN3CCOCC3)C3=C2C(=O)CC(C)(C)C3)cc1`?
Sa ugtP lethal: 4; Bead autofluor: 4466; RN4220 kill: 0.4; BJeLR lethal: 1; Mtb hypoxia rep: -7; PrP UTR inh: -9; Mtb hypoxia rep growth: 1

Results for COc1ccc(C(=O)N2CCC(C(N)=O)CC2)cc1S(=O)(=O)N1CCCC1 ?
Sa ugtP lethal: 2; Bead autofluor: 3782; RN4220 kill: 1.9; Mtb hypoxia rep: -10; PrP UTR inh: 3; Mtb hypoxia rep growth: -2

Results for C(=NN1CCN(Cc2ccccc2)CC1)c1cccnc1 ?
Sa ugtP lethal: 8; RN4220 kill: 5.5; Mtb hypoxia rep: 11; Mtb hypoxia rep growth: 4

What do the screens show for `COc1ccc(C(=O)N/C(=C\c2cn(C)c3ccccc23)C(=O)N2CCOCC2)cc1OC`?
Sa ugtP lethal: 2; Bead autofluor: 6166; RN4220 kill: 0.8; BJeLR lethal: -11; Mtb hypoxia rep: 1; PrP UTR inh: -14; Mtb hypoxia rep growth: 0

Results for Cc1ccc2cccc(OC(=O)c3ccc4c(c3)OCCO4)c2n1 ?
Sa ugtP lethal: -4; Bead autofluor: 4986; RN4220 kill: 6.3; BJeLR lethal: 2; Mtb hypoxia rep: 2; PrP UTR inh: -8; Mtb hypoxia rep growth: 5

How did CCN(CC(=O)Nc1c(F)cccc1F)C(=O)CCCNC(=O)c1ccc(Cl)cc1 do in these assays?
Sa ugtP lethal: 7; Bead autofluor: 5833; RN4220 kill: 3.4; BJeLR lethal: -2; Mtb hypoxia rep: 5; PrP UTR inh: -8; Mtb hypoxia rep growth: 4

What do the screens show for `Cc1cccc(C)c1NC(=O)CS(=O)CC(=O)NCCCc1ccccc1` (stereo unspecified)?
Sa ugtP lethal: -6; Bead autofluor: 4059; RN4220 kill: -2.5; BJeLR lethal: -5; Mtb hypoxia rep: 0; PrP UTR inh: -9; Mtb hypoxia rep growth: 15

What do the screens show for `CCOc1ccc(CCNC(=O)CSCC(=O)Nc2cccc(C)c2)cc1OCC`?
Sa ugtP lethal: 4; Bead autofluor: inconclusive; RN4220 kill: 2.9; BJeLR lethal: -9; Mtb hypoxia rep: 7; PrP UTR inh: -14; Mtb hypoxia rep growth: 13

How did CN(C)CCNC(=S)Nc1ccc(Br)cc1 do in these assays?
Sa ugtP lethal: -3; Bead autofluor: 2532; RN4220 kill: 1.9; BJeLR lethal: -4; Mtb hypoxia rep: 7; PrP UTR inh: -16; Mtb hypoxia rep growth: 5

Results for CC(=O)Nc1cc2c(=O)n(Cc3ccccc3)c(C)nc2cc1N1CCOCC1 ?
Sa ugtP lethal: 3; Bead autofluor: 3154; RN4220 kill: 5.0; BJeLR lethal: 2; Mtb hypoxia rep: 14; PrP UTR inh: -22; Mtb hypoxia rep growth: 9

What do the screens show for `Fc1cc(Cl)c(OCc2noc(-c3ccsc3)n2)c(Cl)c1`?
Sa ugtP lethal: 6; Bead autofluor: 3502; RN4220 kill: 3.9; BJeLR lethal: 8; Mtb hypoxia rep: 16; PrP UTR inh: -96; Mtb hypoxia rep growth: 16

Results for CCN(C(=O)COC(=O)CCOc1ccccc1C)c1c(N)n(Cc2ccccc2)c(=O)[nH]c1=O ?
Sa ugtP lethal: 5; Bead autofluor: 3925; RN4220 kill: 3.5; Mtb hypoxia rep: 5; PrP UTR inh: -36; Mtb hypoxia rep growth: 2

What do the screens show for `Cc1ccc(Cl)cc1N1CCN(C(=O)C2CCN(S(C)(=O)=O)CC2)CC1`?
Sa ugtP lethal: 4; Bead autofluor: 4833; RN4220 kill: 3.8; BJeLR lethal: 8; Mtb hypoxia rep: 1; PrP UTR inh: -29; Mtb hypoxia rep growth: 2

What do the screens show for `O=C(O)COc1ccccc1/C=N/NC(=O)c1cccc(S(=O)(=O)Nc2cccc(Cl)c2)c1`?
Bead autofluor: 3730; BJeLR lethal: -1; PrP UTR inh: -21

What do the screens show for `O=S(=O)(c1ccc(Cl)nc1)N(Cc1ccccc1)Cc1ccccc1`?
Sa ugtP lethal: 8; Bead autofluor: 2133; RN4220 kill: 1.1; BJeLR lethal: 5; Mtb hypoxia rep: 10; PrP UTR inh: -9; Mtb hypoxia rep growth: 3

What do the screens show for `COc1cccc(CNC(=O)[C@H](C)NC(=O)C2CCN(S(=O)(=O)c3ccccc3)CC2)c1`?
Sa ugtP lethal: 14; Bead autofluor: 5100; RN4220 kill: 5.0; BJeLR lethal: -10; Mtb hypoxia rep: -1; PrP UTR inh: -4; Mtb hypoxia rep growth: 1

What do the screens show for `COc1ccc(N(C(=O)c2ccc3c(c2)OCO3)C2C=CS(=O)(=O)C2)c(OC)c1` (stereo unspecified)?
Sa ugtP lethal: -2; Bead autofluor: 5727; RN4220 kill: -1.3; BJeLR lethal: 11; Mtb hypoxia rep: 15; PrP UTR inh: -7; Mtb hypoxia rep growth: 1

What do the screens show for `Cc1ccc(NC(=O)C[n+]2cc(-c3ccccc3)n3c2CCC3)cc1`?
Sa ugtP lethal: 2; RN4220 kill: -0.8; BJeLR lethal: -1; Mtb hypoxia rep: 6; Mtb hypoxia rep growth: 4

Results for CCOc1ccc(CCNC(=O)c2cc(=O)[nH]c3ccc(S(=O)(=O)N(CC)CC)cc23)cc1OCC ?
Sa ugtP lethal: 0; Bead autofluor: 3844; RN4220 kill: 1.4; BJeLR lethal: 2; Mtb hypoxia rep: -8; PrP UTR inh: 1; Mtb hypoxia rep growth: -7

How did CC(C)CN(Cc1cc(=O)oc2cc3c(cc12)CCCC3)CC(C)C do in these assays?
Sa ugtP lethal: 12; Bead autofluor: 3710; RN4220 kill: 4.5; BJeLR lethal: -3; Mtb hypoxia rep: 4; PrP UTR inh: -17; Mtb hypoxia rep growth: -2

What do the screens show for `O=C(Nc1ccccn1)c1ccc(Br)c(S(=O)(=O)N2CCCCC2)c1`?
Sa ugtP lethal: 13; Bead autofluor: 8738; RN4220 kill: 4.7; BJeLR lethal: 18; Mtb hypoxia rep: 2; PrP UTR inh: -17; Mtb hypoxia rep growth: 2

How did CCOCCCNC(=O)C1CCN(S(=O)(=O)CC)CC1 do in these assays?
Sa ugtP lethal: 2; Bead autofluor: 11820; RN4220 kill: -0.4; BJeLR lethal: 0; Mtb hypoxia rep: -1; PrP UTR inh: -11; Mtb hypoxia rep growth: -6

How did CC(Sc1nc2cc(Cl)ccc2s1)C(=O)Nc1cccc(S(=O)(=O)N2CCOCC2)c1 (stereo unspecified) do in these assays?
Sa ugtP lethal: -6; Bead autofluor: 6930; RN4220 kill: -3.8; BJeLR lethal: -5; Mtb hypoxia rep: 12; PrP UTR inh: -9; Mtb hypoxia rep growth: 3

What do the screens show for `CC(NC(=S)NCCCN1CCOCC1)C1CC2CCC1C2` (stereo unspecified)?
Sa ugtP lethal: -17; Bead autofluor: 4307; RN4220 kill: -1.4; Mtb hypoxia rep: -4; PrP UTR inh: -34; Mtb hypoxia rep growth: 7

How did Cc1nn(C)c(C)c1/C=C1/SC(=S)NC1=O do in these assays?
Sa ugtP lethal: 0; Bead autofluor: 7933; RN4220 kill: 1.3; BJeLR lethal: -4; Mtb hypoxia rep: -26; PrP UTR inh: -18; Mtb hypoxia rep growth: -13

How did OC(COc1ccc2c(c1)OCO2)CN1CCCC1 (stereo unspecified) do in these assays?
Sa ugtP lethal: 6; Bead autofluor: 4327; RN4220 kill: 2.0; BJeLR lethal: 11; Mtb hypoxia rep: 16; PrP UTR inh: 3; Mtb hypoxia rep growth: 12

Results for CO/N=C(\C(=O)N[C@@H]1C(=O)N2C(C(=O)O)=C(COC(C)=O)CS[C@H]12)c1csc(N)n1 (stereo in doubt) ?
Bead autofluor: 5987&4279&6075; BJeLR lethal: -16; PrP UTR inh: -9&-15&8

What do the screens show for `O=C(CCN1C(=O)/C(=C/c2ccccc2Cl)SC1=S)NNC(=O)c1cccnc1`?
Sa ugtP lethal: 6; Bead autofluor: 5971; RN4220 kill: 10; BJeLR lethal: -1; Mtb hypoxia rep: 1; PrP UTR inh: -17; Mtb hypoxia rep growth: 0

Compound activity: PubChem BioAssay, several laboratories
